Compound activity (PubChem)
rRNA inh HTS: inhibits bacterial ribosomal RNA function over humanized ribosomes; hit rate 1.6% among 350,000; E. coli WT GFP vs humanized-ribosome RFP mutants, fluorescence, 24 h; active compounds read low; DMSO median 0, no signal -100; AID 720706; GFP signal change (wild-type ribosome), % (test concentration not listed);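 active = significant combined selectivity score with lowered wild-type GFP, culture density cut under 30%, mutant RFP and density less affected; inactive = any of these conditions unmet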; note: one replicate is shown; some compounds called inactive have numbers as strong as hits
T cruzi inh: blocks replication of Trypanosoma cruzi. inhibition, % (no concentration beside the values). hit rate 1.4% among 300,000. AID 1885. T. cruzi beta-gal in NIH3T3, luminescence, 90 h;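 active = mean inhibition across valid replicates above about 55%, limit read from the data; inconclusive = mean below that limit but half or more replicates reach it; inactive = mean below it, under half of replicates reach it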;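 note: signal also drops with host cell toxicity which is not excluded here; 0% = plate median of DMSO wells and 100% = zero luminescence signal; higher percent means less beta-gal luminescence so fewer parasites; stock transfer was 50 nL into about 50 µL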
RanGTP-Imp inh: inhibitors of RanGTP-importin-beta interaction, primary screen, biochemical, FRET, CFP-Ran, YFP-importin-beta, homogeneous | cell-free CFP-Ran/YFP-importin-beta FRET ratio | inhibition, % (no concentration beside the values) | hit rate 1.1% among 300,000 | AID 2216;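 active = most replicates above 15%; inconclusive = exactly half above 15%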;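 note: 0% = DMSO wells and 100% = Ran loaded with GDP instead of GTP; wells of about 40 µL received 100 nL stock; the first replicate is given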
MLL AF4-AF9 inh: MLL-AF4/AF9 protein interaction inhibition; P42568; AlphaScreen, biotin-AF4 peptide binding to FLAG-AF9; inhibition, % at 10 µM; hit rate 0.47% among 350,000;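 active = every replicate reaching a set inhibition limit, whatever the replicate mean, cut at about 25% in these data; inconclusive = mean inhibition reaches that limit but some replicates miss it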;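 note: 0% = plate neutral control median and 100% = total signal loss; the record names both 10 and 1 µM as test concentration; the first replicate is given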
Target sequence (P42568 whole entry, looked up): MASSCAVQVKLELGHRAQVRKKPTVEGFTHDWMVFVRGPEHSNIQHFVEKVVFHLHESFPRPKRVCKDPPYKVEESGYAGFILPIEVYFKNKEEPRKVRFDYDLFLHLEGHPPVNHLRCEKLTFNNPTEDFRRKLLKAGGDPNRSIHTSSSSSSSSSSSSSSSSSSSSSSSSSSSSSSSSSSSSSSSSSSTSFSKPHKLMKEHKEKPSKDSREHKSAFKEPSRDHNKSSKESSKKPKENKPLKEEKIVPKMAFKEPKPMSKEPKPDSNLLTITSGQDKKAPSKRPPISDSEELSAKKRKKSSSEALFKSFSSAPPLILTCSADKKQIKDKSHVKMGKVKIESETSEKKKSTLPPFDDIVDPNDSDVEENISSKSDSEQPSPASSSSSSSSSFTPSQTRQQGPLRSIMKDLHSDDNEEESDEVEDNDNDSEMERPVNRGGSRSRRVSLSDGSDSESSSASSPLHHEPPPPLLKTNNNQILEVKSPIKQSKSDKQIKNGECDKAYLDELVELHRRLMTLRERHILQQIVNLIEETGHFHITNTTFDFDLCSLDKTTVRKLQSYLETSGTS
Beta apoptosis: beta cell apoptosis inhibition; hit rate 0.8% among 300,000; INS-1E cytokine-induced death, ATP luminescence, 48 h; percent of positive-control rescue, neutral wells zero; AID 435005; protection from apoptosis, % (test concentration not listed);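 active = all replicates at 75% or more, or half of them and the mean; inconclusive = half reach 75% but not the mean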;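 note: 0% = cytokine-treated negative control wells and 100% = positive control rescue; higher means more ATP so stronger rescue from cytokine killing; wells of about 40 µL received 100 nL stock; the first replicate is given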
Calb FLC: affects C. albicans growth with fluconazole; C. albicans CaCi-2 (fluconazole-resistant clinical isolate) + fluconazole, Alamar Blue growth, 48 h; hit rate 0.57% among 300,000; growth inhibition, % (test concentration not listed);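 active = most replicates above 75%; inconclusive = exactly half above 75%; inactive = most below 75%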;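 note: all wells also contain fluconazole at 8 µg/ml as a sub-toxic cotreatment; 0% = median of DMSO wells and 100% = median of geldanamycin control wells; wells of about 8 µL received 7.5 nL stock; the first replicate is given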
ALR H2O2 inh: blocks human ALR sulfhydryl oxidase activity; purified ALR, DTT oxidation, H2O2 HRP-luminol luminescence; hit rate 3.8% among 290,000; inhibition, % (concentration not given with the values); AID 485317;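 active = mean and each replicate at 75% or more; inconclusive = only one of the two met; inactive = neither met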;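 note: stock transfer was 7.5 nL into about 7.5 µL; 0% = neutral wells and 100% = wells with inactivated enzyme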
Target sequence (P55789 whole entry, looked up): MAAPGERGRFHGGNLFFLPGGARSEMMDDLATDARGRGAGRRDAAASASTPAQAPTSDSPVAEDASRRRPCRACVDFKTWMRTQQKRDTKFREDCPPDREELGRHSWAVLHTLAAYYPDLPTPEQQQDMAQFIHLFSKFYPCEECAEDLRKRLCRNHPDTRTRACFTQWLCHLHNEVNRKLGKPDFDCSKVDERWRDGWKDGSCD
FGF22 binding: FGF22 (human) thermal shift binding; recombinant FGF22 thermal shift, SYPRO orange fluorescence; percent of sucrose octasulfate shift, DMSO zero; calls only at 9.99 µM; hit rate 1.5% among 340,000; AID 651658;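 active = melting point raised past a set limit in the mean and every replicate; inconclusive = no clear call; three in four hits are not shown here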
Target sequence (Q9HCT0 whole entry, looked up): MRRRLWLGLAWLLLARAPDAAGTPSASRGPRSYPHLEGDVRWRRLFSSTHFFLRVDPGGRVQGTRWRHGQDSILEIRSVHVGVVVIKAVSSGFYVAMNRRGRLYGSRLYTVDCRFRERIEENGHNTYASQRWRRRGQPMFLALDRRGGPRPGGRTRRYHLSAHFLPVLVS
rRNA inh HTS OD600: also measured in rRNA inh HTS; calls as there; OD600 change, %; measured here: OD600 growth;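 optical density of the mix in the first replicate; 0 = DMSO median and -100 = no signal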
rRNA inh HTS RFP: recorded beside rRNA inh HTS, whose call it bears; RFP signal change, %; measured here: RFP humanized mutant strains;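 first replicate; 0 = DMSO median and -100 = no signal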
Active calls of the source: *; i = inactive; ? = inconclusive; nt = no result given. Some of the compounds tested (hit frequency here may not be typical).

SMILES	rRNA inh HTS	rRNA inh HTS OD600	rRNA inh HTS RFP	T cruzi inh	RanGTP-Imp inh	MLL AF4-AF9 inh	Beta apoptosis	Calb FLC	ALR H2O2 inh	FGF22 binding
CCc1ccc(CNC(=O)C2CCC(=O)N(CCc3ccc(Cl)cc3)C2)nc1 (stereo not drawn)	-9.6	-5.0	-0.2	6.9	9.0	-3.5	-5.0	0.6	-28.1	i
Cc1sc2ncnc(SCC(=O)N3c4ccccc4Sc4ccc(Cl)cc43)c2c1C	nt	nt	nt	13.3	-0.5	-0.4	3.2	-21.0	nt	i
CCC(=O)c1ccc(N2CCN(C(=O)Cc3ccccc3)CC2)c(F)c1	nt	nt	nt	16.0	-3.5	nt	2.7	2.3	3.8	nt
CCc1ccc(-c2nc(NC(=O)c3ccc(OCC(=O)Nc4ccc(F)cc4)c(OC)c3)sc2C)cc1	4.7	11.4	-0.2	-9.5	-2.4	-4.2	-6.0	-0.6	-5.7	i
CCN1CCc2nc(N)oc2CC1	nt	nt	nt	nt	nt	-8.2	-0.5	nt	47.3	i
CSc1ncc(Cl)c(C(=O)Nc2ccccc2Br)n1	2.8	0.1	0.6	2.6	1.9	0.6	-6.3	-6.1	-23.3	i
CCC(C)(C)NC(=O)Cc1ccc(C)cc1	nt	nt	nt	-8.3	8.6	nt	-17.1	-10.2	-9.3	nt
COc1ccc(P(=O)(COc2ccc([N+](=O)[O-])cc2)c2ccc(OC)cc2)cc1	nt	nt	nt	5.1	-1.0	nt	2.4	4.1	-26.0	nt
Cc1cc(C)cc(OCCCn2ccnc2)c1	-0.7	5.0	-5.9	17.1	-3.0	-7.3	?	0.4	-3.1	i
O=C(NC1CCCCC1)c1cc(C2CC2)on1	-2.2	-1.2	-4.4	-7.5	0.5	5.8	-3.3	1.0	nt	i
Cc1sc2nc3ccc(N4CCCC4)nn3c(=O)c2c1C	11.2	13.1	3.3	-3.6	?	0.6	1.6	4.7	nt	i
COc1cccc(CN2CCN(Cc3nc4c(s3)CCCC4)CC2CCO)c1 (stereo not drawn)	3.3	-7.5	-2.9	34.8	3.8	-1.4	-3.1	-25.7	-17.9	i
CC(=O)Nc1ccc(NC(=O)CSc2nnc(NC(=O)c3ccco3)s2)cc1	13.7	12.4	7.3	-6.3	-1.6	-1.3	-1.3	-2.2	-15.3	i
COc1cccc2sc(Nc3nc(-c4ccncc4)cs3)nc12	-1.7	9.9	-2.0	76.3*	2.1	-10.3	34.4	38.3	nt	nt
O=C(NC(=S)Nc1ccc(Cl)cn1)c1cc([N+](=O)[O-])ccc1N1CCOCC1	4.1	7.9	-1.1	-0.5	-3.3	-3.1	1.6	-3.2	-9.0	i
COc1ccc2[nH]c(=O)c(C3c4cc(OC)c(OC)cc4CCN3C(=O)c3ccco3)cc2c1 (stereo not drawn)	3.4	-3.3	-1.5	3.6	-1.0	2.4	-3.1	-1.5	-12.3	i
Cc1ccc(C(=O)CSc2nc(C)cc(SCc3nnc(-c4ccccc4)o3)n2)cc1	nt	nt	nt	22.3	-3.9	nt	0.4	-11.1	-1.4	nt
COc1cc(C)c(C(=O)Oc2cc(C)c(C(=O)O)c(O)c2C)c(OC)c1C	-14.9	-8.9	-6.3	16.6	-0.6	-0.9	3.2	38.6	89.3*	i
CC(C)(C#N)N([O-])C=C[N+](=O)C(C)(C)C#N	nt	nt	nt	-11.9	-1.0	nt	-4.9	0.8	-5.8	nt
CCC1CCCCN1C(=O)COC(=O)c1cc(Br)ccc1Cl (stereo not drawn)	-18.2	-12.5	-4.3	-5.8	1.0	-3.3	-2.8	-24.0	-1.1	i
O=C(O)c1ccc(COc2ccccc2C=C2C(=O)c3ccccc3C2=O)cc1	1.5	-11.7	5.2	-11.8	?	-3.0	0.3	-2.4	71.0	i
O=C(c1ccc(=O)[nH]c1)N1CCCc2ccccc21	3.6	12.6	-0.7	-12.1	2.8	-0.3	-2.8	-2.5	-5.0	i
CCO[C@H]1OC(C(=O)O)=C[C@@H](C2CC2)[C@@H]1CCCO	nt	nt	nt	-25.3	3.8	nt	10.7	-4.0	-6.0	nt
Cc1cc(C)c2nc(N3CCCC(C(=O)NC4CCCC4)C3)sc2c1 (stereo not drawn)	3.2	13.2	-0.4	9.4	2.9	-1.0	nt	-0.3	-1.7	i
O=C(NC1=NCCS1)c1ccc(F)c(S(=O)(=O)N2CCOCC2)c1	4.8	3.1	1.5	nt	nt	-0.3	-4.4	nt	nt	i
Nc1cccc(S(=O)(=O)NC2=NCCC2)c1	nt	nt	nt	-1.9	6.8	nt	-1.6	-2.4	-6.8	nt
O=C(OCC(=O)N1CCN(C(=O)c2ccco2)CC1)c1ccc(Cl)cc1	1.4	2.2	-2.3	nt	nt	-0.1	-6.4	nt	nt	i
O=C1c2ccsc2SCCN1Cc1ccccc1	-19.1	-22.2	-4.4	-2.3	-3.2	-1.3	-7.8	-36.3	-11.6	i
Cc1ccc(NC(=S)NC(NC(=O)C(C)(C)C)C(Cl)(Cl)Cl)c(C)c1 (stereo not drawn)	nt	nt	nt	-14.7	-0.4	nt	-0.2	-1.2	18.3	nt
CCc1ccc(NC(=O)CNS(=O)(=O)c2c(C)noc2C)cc1	nt	nt	nt	-12.9	5.2	nt	1.2	-12.1	-6.7	nt
CN1/C(=C\C(=O)COC(=O)CN2C(=O)C3CC=CCC3C2=O)C(C)(C)c2ccccc21 (stereo not drawn)	nt	nt	nt	-4.9	1.3	nt	2.5	1.8	-12.5	nt
O=C(Cc1cccs1)N/N=C/C=C/c1ccccc1[N+](=O)[O-]	6.4	12.9	1.8	15.5	-6.3	1.5	-0.3	0.9	-3.2	i
Cn1nnnc1SCCNCc1ccccc1OCc1ccccc1	nt	nt	nt	2.2	6.3	nt	5.8	-5.1	nt	nt
O=C(CN1C2CCCC1CC(NC(=O)c1ccccc1)C2)Nc1ccccc1C(F)(F)F (stereo not drawn)	-41.0*	-24.8*	1.1*	11.6	0.6	0.4	15.8	-2.8	2.9	i
CCOc1ccc(NC(=O)c2ccccc2NS(C)(=O)=O)cc1	nt	nt	nt	nt	4.8	nt	0.3	20.4	-4.8	nt
CC1=CCC2C(=O)N(C(C)c3ccccc3)C(=O)C2C1 (stereo not drawn)	nt	nt	nt	-8.2	-1.7	nt	-3.6	24.1	-15.2	nt
COC(CN(C)C(=O)c1ccc2c(c1)NC(=O)c1ccccc1S2)OC	-7.5	-5.4	-5.3	-4.5	-1.7	-3.1	-5.2	119.6*	-5.1	i
O=C(NCc1ccc(F)cc1)c1ccc(NC(=O)C2CCCO2)cc1 (stereo not drawn)	-1.7	5.8	-0.9	-9.5	?	1.4	-1.0	9.9	-0.3	i
O=C(Cc1ccccc1)N1CCCC(c2nc(-c3ccc(S(=O)(=O)N4CCCC4)cc3)no2)C1 (stereo not drawn)	-25.5*	-18.4*	7.6*	30.4	-2.3	-17.5	0.4	28.1	2.1	i
COc1ccc(-c2[nH]ncc2CNC(C)c2cn(C)nc2C)c(F)c1 (stereo not drawn)	11.6	11.6	2.2	-10.4	-2.6	-2.9	-4.0	0.1	-3.4	i
Cc1ccc(S(=O)(=O)N(C(=N)N)c2nc(N(C)C)nc(N(C)C)n2)cc1	7.7	11.2	-2.7	55.0*	0.6	-1.8	-3.5	-6.0	3.4	i
Cc1c(Br)c(O)c(Br)c(O)c1/C=N/n1c(-c2ccccc2)n[nH]c1=S	2.1	-11.6	18.9	42.0	4.5	nt	-2.8	19.9	97.7*	nt
CCOC(=O)CC(NC(=O)CCc1c(C)nc2nc(C)nn2c1C)c1ccc(OC(C)C)cc1 (stereo not drawn)	2.5	-0.9	2.6	-7.3	4.2	0.1	0.4	13.8	nt	i
Cc1ccc(NC(=O)NC(=O)COc2ccccc2C(N)=O)c(C)c1	8.0	17.8	-1.4	nt	nt	-2.7	-2.3	nt	2.0	i
CC(C)CCNC(=O)C1CC(c2cccc([N+](=O)[O-])c2)=NO1 (stereo not drawn)	-1.1	3.4	-1.4	-9.2	-0.2	-0.9	-3.7	-5.6	-5.1	i
COc1ccc(C2CC(c3ccc(OC)cc3O)=NN2C(=O)c2ccccc2)cc1 (stereo not drawn)	7.9	2.4	-0.7	21.0	-5.2	0.4	9.7	1.8	-19.3	i
CCOC(=O)c1nn(-c2ccc(F)cc2)c2nc(Nc3ccccc3)cc(=O)n12	nt	nt	nt	8.4	0.3	nt	0.8	0.7	-2.8	nt
CCOC(=O)C1=C(N)Oc2cc(O)ccc2C1c1ccccc1 (stereo not drawn)	0.5	0.2	1.9	-4.7	9.7	-1.7	nt	-4.0	-4.3	i
O=C(COc1ccc([N+](=O)[O-])cc1)Nc1cccc2nsnc12	12.0	5.8	0.9	-17.1	2.2	-1.0	-0.6	4.4	-38.2	nt
O=C(CCCSc1nc2ccccc2[nH]1)N1CCN(c2ccc([N+](=O)[O-])cc2)CC1	nt	nt	nt	29.6	-2.2	nt	41.5	29.3	-15.6	nt
Additional entries:
SMILES	rRNA inh HTS	rRNA inh HTS OD600	rRNA inh HTS RFP	T cruzi inh	RanGTP-Imp inh	MLL AF4-AF9 inh	Beta apoptosis	Calb FLC	ALR H2O2 inh	FGF22 binding
CCN(CC(=O)NC1CCS(=O)(=O)C1)c1ccc(S(C)(=O)=O)cc1[N+](=O)[O-] (stereo not drawn)	nt	nt	nt	-2.8	1.3	nt	-8.4	-6.8	-14.6	nt
CCOC(=O)N1CCN(c2c(NCc3ccccc3Cl)c(=O)c2=O)CC1	3.1	4.6	-4.5	-7.6	0.5	0.6	-3.0	7.4	nt	i
Cc1ccc(NC(=O)CNC(=O)c2ccco2)cc1	-10.5	-19.1	-4.0	-10.1	-4.4	-5.8	-4.2	-6.5	-0.8	i
O=C(COc1ccc(Cl)cc1Cl)Nc1ccccc1F	14.3	4.4	0.6	1.3	2.5	-2.6	nt	-31.4	0.4	i
CC(=O)N1CCc2cc(S(=O)(=O)NC(CC(C)C)C(=O)N3CCc4ccccc4C3)ccc21 (stereo not drawn)	nt	nt	nt	10.5	1.7	nt	0.1	-3.6	1.3	nt
CN(C)/N=C/c1c(O)ccc2ccccc12	nt	nt	nt	-11.0	0.2	nt	3.1	-1.3	-12.5	nt
COc1ccc(N2C(=O)CCC(C(=O)O)C2c2ccc(F)cc2)cc1 (stereo not drawn)	nt	nt	nt	5.9	1.5	nt	-6.8	-0.8	-2.1	nt
COc1ccc(Nc2nc(-c3ccccc3)nc3ccccc23)cc1S(=O)(=O)N1CCOCC1	-9.3	-6.4	7.6	?	-0.6	-29.1	22.2	-5.6	-2.0	i
O=C(c1cccnc1)N1CCN(C(=O)c2ccco2)CC1	nt	nt	nt	-15.0	5.0	nt	2.9	-11.8	nt	nt
Cc1[nH]c(C)c(S(=O)(=O)NCCc2ccccc2)c1C(=O)N1CCCC1	10.8	14.2	-1.4	1.4	3.4	2.6	-3.5	?	-6.2	i
CCN(C(=O)CN1CCN(c2cccc(Cl)c2)CC1)c1c(N)n(Cc2ccccc2)c(=O)[nH]c1=O	7.5	-30.2	3.1	7.9	-7.0	-4.5	0.7	1.9	92.0*	i
